# Source: PubChem BioAssay (National Center for Advancing Translational Sciences (NCATS))
# TRPML1 inh = blocks the human TRPML1 channel; Q9GZU1; TRPML1-inducible cells, Ca2+ dye fluorescence, FDSS; stronger effect = lower value; inhibition of EC80 agonist-evoked calcium signal; activity change, negative = inhibition, % (no concentration beside the values); hit rate 0.02% among 390,000; in the data active means activity change below about -50%; inconclusive means about -30% to -50%; inactive means above about -30%;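 note: stimulus is agonist 54-4 at its EC80 concentration; % is set by controls: 0 for no effect and ±100 for the full control effect; compound concentration not given in the record; the text of the record puts the active cut at -80%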
# Target sequence (Q9GZU1 whole entry, looked up): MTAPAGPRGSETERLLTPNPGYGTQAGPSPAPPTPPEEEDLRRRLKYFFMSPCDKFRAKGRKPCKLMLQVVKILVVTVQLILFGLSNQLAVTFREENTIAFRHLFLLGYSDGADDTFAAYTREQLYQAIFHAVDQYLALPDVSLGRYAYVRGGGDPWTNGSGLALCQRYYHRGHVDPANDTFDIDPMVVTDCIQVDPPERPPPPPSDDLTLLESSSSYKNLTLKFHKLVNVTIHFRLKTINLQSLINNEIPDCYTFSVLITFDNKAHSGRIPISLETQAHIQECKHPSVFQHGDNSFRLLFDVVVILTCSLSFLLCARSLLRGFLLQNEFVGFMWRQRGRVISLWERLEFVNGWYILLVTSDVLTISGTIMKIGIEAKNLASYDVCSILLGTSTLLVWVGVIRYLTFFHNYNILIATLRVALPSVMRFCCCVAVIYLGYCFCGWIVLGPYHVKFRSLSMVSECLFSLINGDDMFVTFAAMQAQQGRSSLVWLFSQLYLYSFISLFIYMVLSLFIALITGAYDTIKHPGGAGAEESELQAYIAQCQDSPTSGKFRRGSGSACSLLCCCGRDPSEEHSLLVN
#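 Tet-induced TRPML1-DL cells loaded with Ca8 no-wash calcium dye were read kinetically on FDSS. Compound addition was followed by EC80 agonist 54-4 (4 uM final); inhibition was read over 110 s.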
# TRPML1 agonist = human mucolipin-1 channel agonism; Q9GZU1; TRPML1-expressing cells, Ca2+ dye fluorescence, FDSS; host cell line not named in the record; reference of the full effect not given here; activation, % (test concentration not listed); hit rate 0.12% among 410,000; in the data active = activation above about 50%; inconclusive = about 30% to 50%; inactive = below about 30%; note: 0% is about no effect; the text of the record puts the active cut at 80%
#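 Tet-induced TRPML1-DL cells, 1,500 per well, cultured overnight, were loaded with a no-wash Ca2+ dye for 45–90 min. Calcium fluorescence was recorded on the FDSS for 110 s after compound addition, before the EC80 agonist (4 uM 54-4) was added.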
# PINK1 modulator = changes PINK1 expression; PINK1 immunofluorescence, high-content cytometry, 24 h; Potency, µM (highest dose often 76.6 µM), for the others: at the top dose activation (PINK1 increase), usual class: activators; hit rate 0.2% among 410,000; active = well fitted activation curve with a large enough effect; inconclusive = small, poorly fitted or top-dose-only effect; inactive = flat fitted curve, though single readings scatter; cell line not stated here;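 note: potency is the fitted concentration of half-maximal effect; % of control where 0% means no effect; nearly all actives have a fitted effect of over 65% in size; a mitochondrial uncoupler was the plate control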
#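 PINK1 protein level read as immunofluorescence by microplate cytometer in a fixed, stained stable cell line after 24 h exposure to five compound concentrations, with CCCP as control.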
# TRPV1 potentiator = human TRPV1 potentiation | hit rate 0.02% among 320,000 | TRPV1-expressing cells, Fluo-8 calcium influx, capsaicin EC20 potentiation; host cell line not named in the record; control for the full effect not named in the record | AID 540277 | potentiation, % at 8.33 µM; active means potentiation above 80%; inconclusive means 30% to 80%; inactive means below 30%; note: 0% is about no effect
#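 Fluo-8 calcium influx in TRPV1-expressing cells, kinetic read (ex 480/em 520 nm). Compound added and read 3 min for agonist activity, followed by capsaicin at EC20 final and 2 min further read for enhancement.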
# Menin-MLL FL inh = displaces fluorescein MLL peptide from human menin; Fluorescence polarization, fluorescein-MLL peptide displacement from menin; FP activity change, % at 61.4 µM; 290,000 tested, under 10 active; AID 1766; inconclusive = falling polarisation curve, or a change in total fluorescence; inactive = total fluorescence flat and polarisation flat or rising; no compound was filed as active; the % refers to the polarisation; negative = inhibition;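 note: % of control where 0% means no effect; inhibitors lower the polarisation; unlabelled MLL peptide was the positive control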
# ClpP mod = qHTS Assay for Activators of ClpP; purified B. subtilis ClpP, FRET peptide cleavage, 20 min; hit rate 1.9% among 340,000; ATP-dependent Clp protease proteolytic subunit (Bacillus subtilis (strain 168)), P80244; Potency, µM (titrated, usually from 57.5 µM), for the others: top-dose activity change, negative = active; active = well fitted falling curve with a large enough effect; inconclusive = small, poorly fitted or top-dose-only effect; inactive = no such curve, though single readings can be large or run the other way; note: potency is the fitted concentration of half-maximal effect; the source files actives as falling curves though it sought activators and does not explain the sign; nearly all actives have a fitted effect of over 65% in size; many hits overshoot -100%
# Target sequence (P80244 whole entry, looked up): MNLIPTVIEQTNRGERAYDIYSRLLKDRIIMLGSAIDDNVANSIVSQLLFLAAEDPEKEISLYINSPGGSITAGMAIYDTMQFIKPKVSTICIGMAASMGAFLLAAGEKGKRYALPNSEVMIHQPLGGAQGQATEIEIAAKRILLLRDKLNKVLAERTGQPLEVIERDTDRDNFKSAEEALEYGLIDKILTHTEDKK
#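 Purified B. subtilis ClpP, 10 microg/mL final in Tris/HCl pH8 with KCl, BSA, glycerol and Tween-20, cleaved an Abz/nitrotyrosine-quenched decapeptide. Fluorescence (ex 320, em 430) was read at 0 and 20 min at room temperature. Delta was normalized to 5.8 microM ADEP and DMSO/no-enzyme controls.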
# Sfp PPTase inh = blocks B. subtilis Sfp PPTase activity | Q9F4F7 | Biochemical Sfp PPTase activity, qHTS | Potency, µM, without a hit: max response, negative = inhibition, most hits filed as inhibitors | hit rate 3.5% among 310,000; active = well fitted inhibition curve with a large enough effect; inconclusive = small, poorly fitted or top-dose-only effect, or another doubt; inactive = no such curve, though single readings can be large or run the other way;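 note: the enzyme is Sfp with the accession as filed and its product quenches rhodamine fluorescence; potency is the fitted concentration of half-maximal effect; 0% = enzyme reaction without inhibitor and -100% = no enzyme wells; top concentration of the series not given in the record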
#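 Fluorescence-quenching assay with 15 nM Sfp, 5 uM rhodamine-CoA and 12.5 uM BHQ-2-labelled ybbR peptide in pH 7.6 Hepes/MgCl2 buffer. Enzyme was pre-incubated with compound for 15 min at room temperature. Rate was taken from the 30-min fluorescence change (525/598 nm).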
# * marks the source's active call; other numbers are inactive results; ? = inconclusive; nt = no result given; & = joins results of further samples; [ ] = another dose, or the depositor's remark. This is a random part of the collection; about 4.4% have a hit in one of these screens.
SMILES,TRPML1 inh,TRPML1 agonist,PINK1 modulator,TRPV1 potentiator,Menin-MLL FL inh,ClpP mod,Sfp PPTase inh
Cc1ccc(F)cc1NC(=O)Nc1cc(C(C)(C)C)nn1C,-8,-0.4,2.6%,0,3.3,1.0%,24%
Cc1ccc2ncc([N+](=O)[O-])n2c1,-6,0.1,15%[38.3 µM],5,0.3,-0.8%,15%
COc1ccc(/C=C2/C(=O)OCc3cc(OC)c(OC)cc32)cc1,-10,0.6,3.6%,3,2.5,1.3%,-2%
Cc1ccc(C)c(OC(=O)c2cccc(S(=O)(=O)N3CCN(C)CC3)c2)c1,46,0.2,0.6%,6,nt,-1.2%,-5%
COc1ccc(-c2cc(C(=O)Nc3ccccc3SC)no2)cc1OC,4,-0.1,?,-1,-5.5,?,-6%
O=C(O)CSCC(=O)NCc1cccc(C(F)(F)F)c1,10,0.3,2.0%,1,-4.0,-1.4%,5%
Cc1cccc(C(=O)Nc2cc(NC(=O)c3cccs3)ccc2C)c1,4,0.5,0.4%,-10,3.6,-1.8%,14%
Fc1ccc(CN2CCN(C(c3ccccc3)c3ccccc3)CC2)cc1,nt,nt,40µM*,-2,6.5,0.2%,-26%
O=C(Nc1ccccc1F)c1cnc(N2CCCCC2)c2ccccc12,-5,1.6,-0.4%,nt,nt,?,nt
CCCCCc1ccc(-c2cn(Cc3ccc(C)cc3)nn2)cc1,1,0.7&1.4,7.5%,-7,-6.4,-1.7%&0.6%,8%
CC(=O)c1ccc(N2CCN(C(=O)c3cc(-c4cccnc4)nc4ccc(Br)cc34)CC2)cc1,25,-0.3,11%,7,6.0,nt,6%
CC(C)(C)NC(=O)C1CCN(C(=O)c2ccco2)CC1,3,-0.3,-0.9%,1,-3.6,nt,4%
CCN(CC)S(=O)(=O)c1ccc(N/N=C/c2ccc(O)cc2O)nc1,27,-0.7,8.5%,4,12,-8.6%,-11%
Cn1c(Cn2c(=O)sc3ccccc32)nnc1SCC(=O)N1CCc2ccccc21,10,4.2,-1.4%,4,-0.7,1.3%,18%
COc1ccc(N2CCN(C(=O)CN3C(=O)NC(C)(c4ccc5ccccc5c4)C3=O)CC2)cc1 (configuration not stated),14,-0.2,-2.7%,7,nt,28µM*,nt
COCCN(Cc1cc2cc(C)c(C)cc2nc1Cl)C(=O)Nc1ccccc1,6,-0.2,-2.7%[38.3 µM],0,-1.0,-11%,-23%
O=C(O)CCC1(C(=O)O)OCCc2ccccc21 (configuration not stated),-8,-0.1,nt,17,1.8,0.3%,1%
O=Cc1ccc(OCc2ccc3c(c2)OCO3)cc1,nt,nt,0.9%,-9,-0.8,-0.7%,-8%
CC1(c2ccccc2Cl)NC(=O)N(CC(=O)Nc2ccc(N3CCCCC3)cc2)C1=O (configuration not stated),-1,-0.4,-0.6%,11,nt,-0.9%,nt
COc1c(C)cc(S(=O)(=O)Nc2cccc(-c3ccc(N4CCOCC4)nn3)c2)c(C)c1C,-13,-1.1,0.1%,nt,nt,?,nt
COc1ccc(OCCN2CCN(S(=O)(=O)c3ccccc3C#N)CC2)cc1,2,-0.2,-1.2%,-5,nt,1.0%,nt
Cc1ccccc1OCC(O)CN1CCC(C)CC1 (configuration not stated),-4,0.3,-0.9%,12,-1.5,nt,20%
Cc1nnc(-c2ccc(Oc3ccc(Cl)cc3)c([N+](=O)[O-])c2)o1,7,2.6,4.1%,-12,-0.7,-0.8%,-27%
CCOc1ccccc1NC(=O)CCn1c(-c2ccc(OC)cc2)cc(C(C)=O)c1C,8,0.1,-1.1%,nt,nt,0.4%,nt
COC(=O)c1sccc1NC(=O)Cn1cnc2c1c(=O)n(C)c(=O)n2C,-3,-0.6,1.0%,3,0.0,1.2%,19%
COC(=O)c1ccc(C(=O)Nc2cc(Cl)ccc2Cl)cc1NC(=O)c1ccc(N(C)C)cc1,16,0.6,-1.2%[38.3 µM],4,-0.2,-1.5%,-3%
O=C1c2ccccc2C(Nc2ccc(S(=O)(=O)N3CCCCC3)cc2)N1c1ccccn1 (configuration not stated),8,-0.1,-1.1%,-2,2.1,-6.0%,19%
CN1CCN(c2ccc(CNC(=O)C3(C)Cc4c(-c5ccc6c(c5)OCO6)ccnc4O3)cc2)CC1 (configuration not stated),nt,-0.5,1.7%,nt,nt,4.2%,nt
Cc1nc(-c2ccc(F)cc2)sc1CCNC(=O)c1ccco1,-23,0.1,-1.3%,nt,nt,-11%,nt
O=C(Nc1ccc2c(c1)OCO2)N1CCCC1,-10,-0.9,0.2%,-3,-1.5,0.3%,13%
COCCCn1c(SC(C)C(=O)NC2CC2)nc2ccccc2c1=O (configuration not stated),20,2.9,1.3%,-31,nt,nt,nt
CCN(CC)S(=O)(=O)c1ccc(NC2CCCc3ccccc32)nc1 (configuration not stated),28,-0.1,3.6%,-8,0.9,?,5%
COc1ccc(C(=O)Nc2ccc(NC(=O)c3ccccn3)cn2)cc1,25,-1.1,13%,-2,3.0,0.5%,7%
COC(=O)C(Cc1ccccc1)NC(=O)CCCC(=O)NCc1cccc(OC)c1 (configuration not stated),-8,-0.3,-1.2%,4,2.3,0.6%,14%
CC1(C)CC[C@]2(C(=O)O)C(O)C[C@@]3(C)C(=CCC4[C@@]5(C)CCC(O)C(C)(C)C5CC[C@@]43C)C2C1 (some centres not stated),nt,nt,1.1%,nt,-3.2,nt,-4%
Cc1ccc(N(C(=O)c2csnn2)C(C(=O)NC2CCCCC2)c2ccccn2)c(C)c1 (configuration not stated),9,1.6,0.2%,5,-3.0,nt,2%
COc1ccc(S(=O)(=O)N2CCCCCC2)cc1C(=O)N(C)Cc1ccco1,-5,-0.1,4.2%,?,nt,-11%,nt
CCCSc1nc2[nH]ncc2c(=O)[nH]1,-9,1.4,0.8%,2,5.1,0.0%,7%
O=C(O)/C=C\C(=O)Nc1ccccc1C(=O)NC1CCCCC1,32,-0.2,-1.1%,-14,-4.5,nt,?
COc1cccc(CNC(=O)CCCn2c(=O)c3cccn3c3ccc(F)cc32)c1OC,3,4.9,-1.1%,nt,nt,-18%,nt
C#CCOc1ccc(C2C3=C(CCCC3=O)N(CC(=O)O)C3=C2C(=O)CCC3)cc1Br,27,-0.4,-1.4%,1,3.3,nt,-12%
CCC1(c2ccccc2)NC(=O)N(CC(=O)Nc2cccc(S(=O)(=O)N3CCCC3)c2)C1=O (configuration not stated),-8,-0.7,1.0%,?,nt,-1.7%,nt
O=C(O)c1ccc(/C=C(\c2nc3ccccc3[nH]2)c2nc3ccccc3s2)cc1,17,2.2,-3.0%,-12,0.9,nt,14%
Cc1cc(C)nc(NS(=O)(=O)c2ccc(NC(=O)C3CC3)cc2)n1,5,0.5,0.2%,1,-2.4,nt,3%
CC1CCN(c2ccccc2NC(=S)NC(=O)c2ccc(-c3cccc([N+](=O)[O-])c3)o2)CC1,2,-0.4,nt,-1,1.7,-1.2%,-6%
COc1cc(/C=C(\C#N)c2nc(-c3cc4ccccc4oc3=O)cs2)ccc1O,-4,0.8,6.5%,3,?,-0.4%,8%
CC(=O)Nc1cccc(S(N)(=O)=O)c1C,27,0.3,6.3%,9,0.7,1.2%,28%
CCn1c(COc2cccc3cccnc23)nnc1SCC(=O)O,-1,1.7,-0.8%,6,-0.3,-15%,3%
Cc1ccc(NC(=O)c2cccc(N3C(=O)CCC3=O)c2)nc1,-11,-0.1,1.8%,1,-1.3,0.8%,-8%
CC(NC(=O)COC(=O)CNS(=O)(=O)/C=C/c1ccccc1)c1ccccc1 (configuration not stated),3,-1.6,0.2%,-4,nt,0.4%,nt
Nc1nc(CSC(=S)N2CCN(c3ccccc3)CC2)nc(Nc2ccccc2)n1,30,0.5,2.2%,-4,1.3,?,8%
CCC(C)(C)C(=O)Nc1ccc(OC)cc1[N+](=O)[O-],-15,-0.4,0.2%[38.3 µM],1,-3.4,-1.5%,4%
Cc1ccc(S(=O)(=O)N2CCOCC2)cc1NC(=O)CN(C)C1CCS(=O)(=O)C1 (configuration not stated),-10,-0.5,3.6%,21,2.9,-2.2%,14%
Cc1ccc(C)c(OCc2cc(C(=O)N(C)Cc3nccs3)no2)c1,-17,-1.0,-0.1%,-18,-0.4,-0.4%,1%
CCC(=O)c1ccccc1OCCN1CCN(Cc2ccccc2)CC1,-14,-0.6,2.2%,-1,-2.0,nt,56µM*
CCOC(=O)NC(=O)CSc1nnnn1-c1ccc(C)cc1,2,-1.0,-0.2%,-6,-0.2,-2.2%,17%
Cc1cccc(NC(=S)N2CCC(c3nc4ccccc4o3)CC2)c1,4,0.2,-1.0%,0,2.1,nt,18%
CCc1cccc(NC(=O)Cn2c(=O)c(C(F)(F)F)nc3ccccc32)c1,14,-1.0,2.7%,nt,nt,-6.0%,nt
COc1ccc(-c2cc(C(=O)N3CCOCC3)no2)cc1OC,3,-0.2,7.4%[38.3 µM],-8,0.0,-8.5%,28%
CC(C)CCNC(=O)c1ccc2c(c1)ncn2C1CCCC1,25,-0.5,-0.1%,-6,-2.6,nt,14%
# Additional entries follow:
SMILES,TRPML1 inh,TRPML1 agonist,PINK1 modulator,TRPV1 potentiator,Menin-MLL FL inh,ClpP mod,Sfp PPTase inh
COc1cc(C(=O)Nc2ccc(-n3c(C)nc4ccccc4c3=O)cc2)cc(OC)c1OC,-5,-0.5,0.3%,nt,nt,-5.2%,nt
C[C@@H]1NC(=O)OC1c1ccco1 (some centres not stated),0,-0.1&-0.2,0.4%,-22,nt,-0.8%&-2.4%,nt
CCCCN(CC)CCNC(=O)c1cn(CCOC)c(=O)c2c1c1ccccc1n2C,-3&-5,-0.6&-0.1,-0.5%&-0.8%,1,0.5,3.4%&3.7%,15%
COc1ccccc1/C=C1/C(=O)N(c2ccccc2)N=C1C,-3,0.7,4.6%,-6,-24,nt,-4%
Cc1cccc(OCCn2c(=S)[nH]c3ccccc32)c1,44,-0.6,-1.5%,?,3.3,-0.1%,6.3µM*
CCOC(=O)CSc1nc2c(c(=O)[nH]1)C(C)(CC)Cc1ccccc1-2 (configuration not stated),-10,-1.5,8.9%,-19,-1.0,-1.1%,-8%
